Vaccinia pol inh: inhibitors of vaccinia virus processive DNA synthesis (E9 polymerase); in vitro processive DNA synthesis, absorbance read-out; hits give low values; some inactives read as strong as hits; normalized absorbance, % (no concentration beside the values); hit rate 0.94% among 46,000; AID 493162;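 active means replicate mean up to 90% and picked by the depositor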;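 further: 100% = median of the test wells of a plate; 100 nL library stock went into each well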
The depositor's hits bear a star. An excerpt, so the mix of outcomes need not match the whole.

SMILES	Vaccinia pol inh
CSc1ccccc1NC(=O)c1cnn2c(C(F)(F)F)cc(-c3ccco3)nc12	101
NC(=O)C1(S(=O)(=O)c2ccccc2)CC1	101
COc1ccc(C2C(C(=O)NCCCN3CCCCCC3)CCC(=O)N2c2ccc(OC)cc2)cc1 (centres undefined)	101
COc1cccc(/C=[N+](/C)[O-])c1OCc1ccccc1	103
Cc1ccnc(NC2CCCCC2)c1	100
O=C(NCCC1=CCCCC1)c1ccc(Cn2c(=S)[nH]c3cc4c(cc3c2=O)OCO4)cc1	96
CCOC(=O)CSc1nc(N)c2c3c(sc2n1)CCCC3	97
Cc1cn(CCC(=O)O)c(=O)[nH]c1=O	108
COC(=O)c1c[nH]n2c(NC3CCCCC3)c(-c3cccc(Br)c3)nc12	108
COc1ccccc1NS(=O)(=O)c1ccccc1	101
O=C(COC(=O)c1cc2ccccc2cc1O)NCc1ccccc1	106
C=CCNC(=O)Cn1c(=S)[nH]c2ncccc2c1=O	100
O=C1CSC(=S)N1/N=C/c1cccnc1	102
CN1C(=O)/C(=C\C=C\c2ccccc2)SC1=S	108
CC1(C)OC(C(=O)NC2CCCCC2)C(C(=O)NC2CCCCC2)O1 (centres undefined)	98
N#CCn1cc(/C=C2\C(=O)NC(=O)N(c3cccc(F)c3)C2=O)c2ccccc21	96
C=CCNC(=O)c1cc(=O)c2ccccc2o1	99
CCOC(CCn1c(SCc2cccc(F)c2)nc2ccccc2c1=O)OCC	99
CCOC(=O)C1CCCN(C(=O)CSc2ccc(Cl)cc2)C1 (centres undefined)	102
N#Cc1cc2c(=O)n3ccccc3nc2n(C2CCCC2)c1=N	100
CCOC(=O)c1cc(-c2csc(Nc3ccccc3Cl)n2)on1	99
Cc1cc(C)c2c(=O)n(-c3ccccc3)[nH]c2n1	100
CC1CCc2cc(F)ccc2N1C(=O)CN1C(=O)c2ccccc2C1=O (centres undefined)	100
Nc1ccc(-c2cc(C(=O)O)c3ccccc3n2)cc1	100
O=c1c2ccccc2[nH]c(=S)n1-c1cc(C(F)(F)F)cc(C(F)(F)F)c1	102
CC1(C)CC(=O)C2=C(C1)OC(c1cccs1)C(C#N)=C2N (centres undefined)	100
Cc1cc(C)c(C#N)c(SCC(=O)c2ccccc2)n1	96
CC(C)(C)C(=O)NCCSc1nnnn1-c1ccccc1	91
O=C1c2[nH]nc(-c3ccccc3O)c2C(c2ccccc2)N1Cc1ccco1 (centres undefined)	97
S=C(NC(Cc1ccccc1)c1ccccc1)NC1CC2C=CC1C2 (centres undefined)	102
CC1CCCC(NC(=O)c2ccc(C#N)cc2)C1C (centres undefined)	101
CCOc1ccc2sc(C=NC(C)CC)c(O)c2c1 (centres undefined)	100
N#Cc1cccn1Cc1ccccc1N	111
Cc1ccc(C2CCN(C(=S)Nc3ccccc3C)C2)cc1 (centres undefined)	98
CC1CC(C)CN(C(=O)CN2C(=O)c3ccccc3S2(=O)=O)C1 (centres undefined)	105
O=C(NC(=O)N1CCCCC1)c1ccc(-c2csnn2)cc1	98
Nc1cccc(-c2nc3ccccc3o2)c1	100
N#Cc1ccc(-c2c(-n3cccc3)oc(-c3cccs3)c2C#N)cc1	110
O=C(NCCO)C12CC3CC(CC(C3)C1)C2	96
O=C(/C=C/c1ccc(F)cc1)Nc1ccon1	112
O=C(Cn1cc(SCc2ccccc2)c2ccccc21)N1CCCC1	86
O=C1CSCN1c1ccc(Cl)cc1	92
O=C(c1ccco1)N1CCN(Cc2ccc3c(c2)OCO3)CC1	100
Cc1ccc(CCNC(=O)C2(NS(=O)(=O)c3cccc4cccnc34)CCCCC2)cc1	99
CCc1cccc2sc(NN)nc12	84
CCCCc1ccc(NC(=O)N=S2CCN(C(=O)c3ccc(Cl)cc3)CC2)cc1	102
Cc1ccc(C(C(=O)NC2CCCCC2)N(C)c2ccccc2)cc1 (centres undefined)	97
Cc1ccc(O)c(C2=Nc3ccccc3N=C(C(F)(F)F)C2)c1	98
Cn1cc(/C=C(\C(=O)O)C(C(=O)O)=C2CCCCC2)c2ccccc21	83
O=C(O)CCc1ccc(-c2cccs2)o1	100
O=C(Nc1ccc2c(c1)N(Cc1ccccc1)C(=O)c1ccccc1S2)NC1CC1	96
COC(CNC(=O)Cn1ncc2ccsc2c1=O)OC	98
CCCN(CC1CC1)C(=S)Nc1ccc(OCC)cc1	105
CSc1ccc(-c2cccc(F)c2F)cc1	112
N=C1/C(=C/c2cccn2Cc2ccc(Cl)cc2)C(=O)N=C2SC=CN12	100
CC(C)COc1ccc(C(=O)Nc2ccc(C(=O)NCC3(c4ccccc4)CC3)cc2)cc1	104
O=C(CCCc1nc(-c2ccccc2)no1)N1CCOCC1	99
CCC(CC)C(=O)Nc1c2c(nn1-c1cccc(C)c1)CSC2	101
Cc1noc2nc(C(F)(F)F)[nH]c(=O)c12	97
COc1cccc(C(O)c2nccn2C)c1OC (centres undefined)	100
(next part)
SMILES	Vaccinia pol inh
COCC(=O)NCc1nc2ccccc2[nH]1	89
CCN(Cc1ccccc1)C(=O)c1cc2c(s1)-c1ccc(Cl)cc1SC2	105
O=S(=O)(NN1CCOCC1)c1cc(S(=O)(=O)c2ccccc2)cs1	111
CCOC(=O)c1ccc(N2C(=O)Cc3ccccc3C2=O)cc1	100
Cc1ccc(C2/C(=C(\O)c3ccc(Br)cc3)C(=O)C(=O)N2CCCN(C)C)cc1 (centres undefined)	100
CN1CCN(c2ncc3c(=S)[nH]c(=S)[nH]c3n2)CC1	109
COc1cccc(/C=N/O)c1O	102
Nc1[nH]c(=S)sc1C(=O)Nc1nccs1	58*
Cc1c(C(=O)NCc2ccco2)cc(-c2ccccc2)n1CCSCc1c(F)cccc1Cl	100
COc1ccc(-c2csc(=Nc3cc(C(=O)O)ccc3C)o2)cc1	89
OC(CN1CCOCC1)Cn1c2c(c3ccccc31)CCCC2 (centres undefined)	87
CN1CCN(C(=O)c2ccc(-c3cccs3)s2)CC1	96
CCOc1ccc(OCC)c(S(=O)(=O)NCc2ccccn2)c1	101
COc1ccc(/C=C/C(=O)Nc2cccnc2)cc1OC	85
COc1ccc(CNC(=O)C2CSC(=O)C2)cc1 (centres undefined)	86
NNC(=O)C1=CC(C(=O)c2cccs2)=NN(c2ccccc2)C1C(=O)NN (centres undefined)	90
O=C(NCC1CCCO1)c1cn(-c2ccccc2)nc1-c1ccc(Cl)cc1 (centres undefined)	100
Cc1cc(C(=O)c2cc3cc(Cl)ccc3o2)ccc1Cl	101
CCN(Cc1ccccc1)S(=O)(=O)c1ccc2c(c1)oc(=O)n2C	104
Oc1ccc(/C=N\n2cnnc2)cc1	83

Twelve of these compounds, reformatted:
SMILES,Vaccinia pol inh
CC1CC(C)CN(C(=O)CN2C(=O)c3ccccc3S2(=O)=O)C1 (centres undefined),105
O=C(NC(=O)N1CCCCC1)c1ccc(-c2csnn2)cc1,98
Nc1cccc(-c2nc3ccccc3o2)c1,100
N#Cc1ccc(-c2c(-n3cccc3)oc(-c3cccs3)c2C#N)cc1,110
O=C(NCCO)C12CC3CC(CC(C3)C1)C2,96
O=C(/C=C/c1ccc(F)cc1)Nc1ccon1,112
O=C(Cn1cc(SCc2ccccc2)c2ccccc21)N1CCCC1,86
O=C1CSCN1c1ccc(Cl)cc1,92
O=C(c1ccco1)N1CCN(Cc2ccc3c(c2)OCO3)CC1,100
Cc1ccc(CCNC(=O)C2(NS(=O)(=O)c3cccc4cccnc34)CCCCC2)cc1,99
CCc1cccc2sc(NN)nc12,84
CCCCc1ccc(NC(=O)N=S2CCN(C(=O)c3ccc(Cl)cc3)CC2)cc1,102

Going on with the list:
SMILES	Vaccinia pol inh
O=S(=O)(c1cccs1)N1CCN(S(=O)(=O)c2cccs2)CC1	102
CC1CC(C)CN(C(=O)COC(=O)Cc2ccc(Cl)cc2)C1 (centres undefined)	101
CC1CCC(C(C)C)C(N(Cc2ccccc2)C(=O)c2cccs2)C1 (centres undefined)	104
COc1ccc(-c2coc3cc4oc(=O)c5c(c4cc23)CCCCC5)cc1	94
O=C(C(Sc1ccccc1)c1ccc(Br)cc1)N1CCOCC1 (centres undefined)	98
CN(C)S(=O)(=O)c1ccc(C(=O)N2CCc3ccccc3C2)cc1	97
COc1cccc(NC(=O)Nc2cn(C)c(=O)c3ccccc23)c1	103
CNC(=O)c1ccccc1NS(=O)(=O)c1ccc(Br)cc1	91
N#Cc1cc2c(=O)n3ccccc3nc2n(-c2cccc(C(F)(F)F)c2)c1=O	98
Cc1nc2nc(C)c(CCC(=O)NCCC3=CCCCC3)c(C)n2n1	97
COc1cccc2sc(NC(=O)c3ccccc3Cl)nc12	107
O=C(CSc1ccc(-c2cccs2)nn1)N1CCc2ccccc21	102
O=c1c(-c2nc3ccccc3[nH]2)coc2ccc(Cl)cc12	99
COC(=O)C(C)Oc1ccc2c(C)cc(=O)oc2c1 (centres undefined)	92
O=C(Nc1cccnc1Cl)C1CSC(c2ccncc2)=N1 (centres undefined)	104
CC1Cc2ccccc2N1C(=O)COC(=O)/C=C/c1ccco1 (centres undefined)	105
COc1ccc(CNC(=O)CCn2c(=O)[nH]c3ccccc3c2=O)cc1	101
CCn1c(=O)c2cc(C(=O)N(C)c3cc(Cl)ccc3C)sc2c2ccccc21	88
CCN(C(=O)COc1ccc2ccc(=O)oc2c1)C1CCCCC1	100
Cc1ccc(/C=C2\SC(=S)N(C(CCC(=O)O)C(=O)O)C2=O)cc1 (centres undefined)	101

Part of the list above, with bars between the fields:
Structure | Vaccinia pol inh
CC1CCC(C(C)C)C(N(Cc2ccccc2)C(=O)c2cccs2)C1 (centres undefined) | 104
COc1ccc(-c2coc3cc4oc(=O)c5c(c4cc23)CCCCC5)cc1 | 94
O=C(C(Sc1ccccc1)c1ccc(Br)cc1)N1CCOCC1 (centres undefined) | 98
CN(C)S(=O)(=O)c1ccc(C(=O)N2CCc3ccccc3C2)cc1 | 97

Next section:
SMILES	Vaccinia pol inh
CCC(=O)Nc1ccc(-c2ccc(NC(=O)CC)c(OC)c2)cc1OC	103
O=S(=O)(NC1CCCCC1NCc1ccco1)c1ccccc1 (centres undefined)	100
Cn1cc(S(=O)(=O)N2CCCC2)cc1C(=O)N1CCCc2ccccc21	104
COc1ccc(NC(=O)CSc2nc3ccccc3[nH]c2=O)cc1	89
Cc1cc(Nc2ccccc2C(=O)O)ccc1Cl	98
CCc1ccc2[nH]cc(S(=O)(=O)c3ccccc3)c(=O)c2c1	98
O=C(COC(=O)c1cc(Br)ccc1O)c1ccc(F)cc1	107
CC(C)(C)C1CCc2c(sc(N)c2C(N)=O)C1 (centres undefined)	98
O=C(O)CC(C1CCCCC1)n1cccc1 (centres undefined)	102
CC(=O)Oc1ccc(-c2ccc(C(=O)NCCCN3CCCC3=O)cc2)cc1	97
COc1ccc(C(c2cc3c(cc2O)OCO3)N2CCOCC2)cc1 (centres undefined)	101
Cc1ccc2nc(SCC(=O)Nc3ccccc3)[nH]c2c1	92
FC(F)(F)c1cccc(OCCNc2nc3ccccc3c3nc(-c4cccnc4)nn23)c1	104
O=c1[nH]c(SC/C=C/c2ccccc2)nc2sc3c(c12)CCC3	100
COC(=O)C1=C(C)OC(N)=C(C#N)C1c1ccccc1C (centres undefined)	112
NC(N)=NS(=O)(=O)c1ccc(NC(=O)c2ccco2)cc1	100
Cc1cc(NC2CCCCC2)nc(-c2ccccc2O)n1	100
O=C(C(NS(=O)(=O)c1cccc2nsnc12)c1ccccc1)N1CCc2ccccc21 (centres undefined)	86
S=c1[nH][nH]nc1-c1cccc(Cl)c1	100
CCCCn1c(=O)c(C(=O)NC(C)c2ccccc2)c(O)c2ccccc21 (centres undefined)	100
CN=C(Nc1cc(C)nn1-c1ccccc1)c1cccs1	101
CCCn1c(-c2ccc(OC)cc2)nc2ccccc21	98
CCSc1oc(-c2cccs2)nc1S(=O)(=O)c1ccccc1	100
Clc1ccc(-c2nnsc2Cl)cc1	110
Cc1cccc(NC(=S)N(CCCNC2=CC(=O)CC(C)(C)C2)C2CCCCC2)c1	100
O=C(NCCCn1ccnc1)c1cc(Cl)cc(Cl)c1	106
FC(F)(F)c1cccc(NCn2c(=S)oc3ccc(Cl)cc32)c1	97
CCOc1ccc(/C=C2\NC(=S)NC2=O)cc1OC	100
COC(=O)c1cccc(NC(N)=S)c1	97
CCc1ccc2occ(CC(=O)Nc3sc4c(c3C(=O)OC)CCCC4)c2c1	102
COc1cc(/C=C/C(=O)/C=C/c2ccc(N(C)C)cc2)cc(OC)c1OC	99
CCc1ccc(NC(=O)CN(C2=NC3CS(=O)(=O)CC3S2)c2ccc(CC)cc2)cc1 (centres undefined)	91
Cc1ccc[n+](Cc2ccccc2)c1	100
CN(C)CCN1C(=O)C(=O)/C(=C(/O)c2ccc(F)cc2)C1c1ccccn1 (centres undefined)	107
Cc1cc2c(cc1C)C(c1ccncc1)CC(=O)N2 (centres undefined)	97
NNC(=O)c1csc(-c2cccs2)n1	99
Cc1cc(C)c2c(=O)[nH]c(SCC(=O)Nc3ccccc3)nc2n1	100
CCOC(=O)c1csc(-c2cccc(C(F)(F)F)c2)n1	71
O=C(O)c1ccccc1C(F)(F)F	100
O=C(/C=C/c1cccc(F)c1)Nc1ccc2c(c1)OCO2	119
FC(F)(F)c1cc(Sc2ccccc2)nc(-c2ccccn2)n1	101
CSC1=C(C#N)C2(CCCC2)C(C#N)C(=O)N1 (centres undefined)	101
O=C(O)/C=C\C(=O)N1CCN(c2nc(-c3ccccc3)ns2)CC1	95
CCNc1cc(Cl)nc(SC)n1	104
c1ccc(-c2nnn(-c3cnc4ccccc4c3)n2)cc1	96
Cn1cnnc1SCC(=O)NCc1cccc(C(F)(F)F)c1	100
O=C1CCN(S(=O)(=O)c2ccc(Cl)cc2)CCN1	100
Cc1ccc(-c2nc3c(cnn3-c3ccccc3)c(=O)n2-c2cccc(C)c2)cc1	100
Cc1cccc(Cl)c1NC(=S)NC(Cc1ccccc1)c1ccccc1 (centres undefined)	103
Clc1cccc(C=NN2CCN(Cc3ccccc3)CC2)c1Cl	101

High-throughput results as filed in PubChem.
